PV pol inh = poliovirus RNA polymerase inhibition; % elongation, % (compound at 16.7 µg/mL); poliovirus polymerase elongation, fluorescence polarization; stronger effect = lower value; actives 0.66% (n = 150,000); P03300; in the data active means % elongation below about 90%; further: some results filed as inactive read as strong as hits
Target sequence (P03300 1749-2209 limits assumed): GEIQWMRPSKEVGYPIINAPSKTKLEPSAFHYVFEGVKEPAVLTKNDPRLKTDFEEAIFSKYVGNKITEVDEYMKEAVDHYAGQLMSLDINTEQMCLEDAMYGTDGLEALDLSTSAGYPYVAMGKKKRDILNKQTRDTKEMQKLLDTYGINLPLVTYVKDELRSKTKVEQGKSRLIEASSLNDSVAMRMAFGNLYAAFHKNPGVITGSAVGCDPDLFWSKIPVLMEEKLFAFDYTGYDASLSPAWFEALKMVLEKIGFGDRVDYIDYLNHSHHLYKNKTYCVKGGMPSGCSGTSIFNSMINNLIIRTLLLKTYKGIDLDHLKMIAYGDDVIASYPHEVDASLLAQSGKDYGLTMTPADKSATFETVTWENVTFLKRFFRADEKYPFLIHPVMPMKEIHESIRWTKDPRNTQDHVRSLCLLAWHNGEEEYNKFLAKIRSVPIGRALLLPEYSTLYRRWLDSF
PV pol inh intensity = further read-out of PV pol inh, marked with its call; % elongation; measured here: total intensity read-out; formula for this scale not given here;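 total fluorescence in place of polarization; lower means less elongation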
An asterisk follows results filed as active. This is a subset; rates above refer to the full screens.

Results follow in this order: PV pol inh, PV pol inh intensity
- Cc1cccc(CNC(=O)CN2C(=O)CSc3c2c(C)nn3-c2ccccc2)c1
    109.0, 113.0
- COc1ccc2c(c1)c(=O)c(S(=O)(=O)c1ccc(F)cc1)cn2CC(=O)Nc1ccc(C)cc1C
    108.0, 106.0
- CCOC(=O)C1=C(CN(C)Cc2ccccc2)NC(=O)NC1c1ccc(OC)cc1 (stereo unspecified)
    111.0, 115.0
- CCOC(=O)c1cc(C)n(CC2CCC(C(=O)Nc3ccc(C(=O)OC)cc3)CC2)c1C (stereo unspecified)
    107.0, 100.0
- FC(F)(F)c1cccc(-c2nnn3c2nc(NC2CCCCC2)c2ccccc23)c1
    106.0, 107.0
- Cc1ccc(NS(=O)(=O)c2ccc3c(c2)NC(=O)CCS3)c(Br)c1
    112.0, 108.0
- COc1cccc(-c2cc(C(=O)NCc3ccc(F)cc3)no2)c1
    105.0, 106.0
- Cc1ccc(S(=O)(=O)N2CCN(Cc3cc(Br)ccc3O)CC2)cc1
    104.0, 102.0
- Cc1ccc(C)c(Cn2cnc3c(cnn3-c3ccc(F)cc3)c2=O)c1
    114.0, 113.0
- COCCNc1ncnc2c1cnn2-c1cc(Cl)ccc1C
    107.0, 110.0

Reformatted as comma-separated lines: 3 of the compounds above
SMILES,PV pol inh,PV pol inh intensity
FC(F)(F)c1cccc(-c2nnn3c2nc(NC2CCCCC2)c2ccccc23)c1,106.0,107.0
CCOC(=O)c1cc(C)n(CC2CCC(C(=O)Nc3ccc(C(=O)OC)cc3)CC2)c1C (stereo unspecified),107.0,100.0
Cc1ccc(S(=O)(=O)N2CCN(Cc3cc(Br)ccc3O)CC2)cc1,104.0,102.0

Continuation:
Results follow in this order: PV pol inh, PV pol inh intensity
- O=C(CSc1nc2c([nH]c3ccccc32)c(=O)n1-c1ccccc1)Nc1ccccc1F
    104.0, 107.0
- CCc1ccc(CN2C(=O)c3ccccc3C2C(=O)NC2CCCCCC2)cc1 (stereo unspecified)
    108.0, 110.0
- Cc1ccc(C)c(NS(=O)(=O)c2cc3c(cc2Cl)NC(=O)CO3)c1
    104.0, 106.0
- O=C1COc2cc(S(=O)(=O)CCC(=O)N3CCN(c4ccccc4F)CC3)c(Cl)cc2N1
    104.0, 105.0
- CCCCOc1ccc(S(=O)(=O)n2nc(C)c(S(=O)(=O)N3CCCCCC3)c2C)cc1
    102.0, 102.0
- COc1ccc(CCNC(=O)Cn2nnc(-c3ccc(C(F)(F)F)cc3)n2)cc1OC
    107.0, 110.0
- Cc1ccc(N2CCN(C(=O)C3CCN(c4ncnc5c4nc4n5CCCCC4)CC3)CC2)c(C)c1
    109.0, 117.0
- CN(C)c1ccc(-c2nc(-c3cc4cc(Cl)ccc4oc3=O)cs2)cc1
    109.0, 112.0
- O=C(Nc1ccc(OC(F)(F)F)cc1)C1CCCN(S(=O)(=O)c2cccc3nonc23)C1 (stereo unspecified)
    110.0, 118.0
- CCOc1ccc(CCNC(=O)CCCn2c(=O)c3cccn3c3cccnc32)cc1
    104.0, 101.0
- CCOC(=O)c1ccc(NC(=O)CSc2nccn2Cc2ccc(OC)cc2)cc1
    114.0, 109.0
- Cc1nn(-c2ccc(N3CCOCC3)nn2)c(C)c1CCC(=O)Nc1ccc(F)cc1F
    112.0, 95.0
- COc1ccc(CCNC(=O)CSc2nc3ccccc3nc2Cc2ccc(Cl)cc2)cc1OC
    103.0, 107.0
- COc1cc(NC(=O)CSc2nc(C)c(C(=O)Nc3ccccc3)c(-c3ccc(OC)c(OC)c3)c2C#N)c(OC)cc1Cl
    107.0, 109.0
- COc1ccc(N2CCN(C(=O)Cn3ncc4c3-c3cc(C)ccc3OC4)CC2)cc1
    107.0, 102.0
- CSCCC(NS(=O)(=O)c1ccc2c(c1)oc(=O)n2C)C(=O)N1CCN(c2cccc(Cl)c2)CC1 (stereo unspecified)
    101.0, 107.0
- Cc1cc(NC(=O)c2ccc(F)cc2)ccc1-c1cc2ccccc2oc1=O
    108.0, 117.0
- COc1ccc(CNCCC(c2ccc3c(c2)OCO3)c2ccccc2OC)cc1 (stereo unspecified)
    106.0, 110.0
- CCc1ccc(NC(=O)CSc2nccn2-c2ccc(OC)cc2)cc1
    110.0, 104.0
- O=C(CCc1nc(-c2cccs2)no1)Nc1ccccc1[N+](=O)[O-]
    107.0, 112.0
- CC1CN(C(=O)CCC(=O)NCc2ccc(F)cc2)c2cc(Cl)ccc2O1 (stereo unspecified)
    111.0, 116.0
- Cc1c(Cl)cccc1NC(=O)CSc1ncnc2c1sc1ccccc12
    105.0, 105.0
- COc1ccc(-c2nc3sc(CCNC(=O)c4ccc(Br)o4)c(C)n3n2)cc1
    107.0, 104.0
- Cc1nc2ccccc2n1CCc1nc2c3ccccc3nc(SCc3ccc(F)cc3)n2n1
    102.0, 99.0
- COc1ccc(CNC(=O)c2cc(-c3ccc(Br)s3)nc3ccccc23)c(OC)c1
    108.0, 111.0
- CCCCC(=O)Nc1cc2nn(-c3ccc(OCC)cc3)nc2cc1C
    107.0, 112.0
- COc1ccc(C)cc1NC(=O)c1ccc2nc(Cc3ccccc3)oc2c1
    111.0, 106.0
- CCOc1ccc(/C=C/c2nc(C#N)c(N3CCCCC3)o2)cc1
    115.0, 114.0
- CCN(CC)S(=O)(=O)c1ccc2c(c1)N(CC(=O)Nc1ccc(C)cc1C)C(=O)C1CCCN21 (stereo unspecified)
    101.0, 107.0
- CCOc1ccc(CCNC(=O)C2CC(=O)N(CCc3ccc(OC)c(OC)c3)C2)cc1OCC (stereo unspecified)
    108.0, 107.0

Gathered by group: those above containing a CF3 group
Results follow in this order: PV pol inh, PV pol inh intensity
- FC(F)(F)c1cccc(-c2nnn3c2nc(NC2CCCCC2)c2ccccc23)c1
    106.0, 107.0
- COc1ccc(CCNC(=O)Cn2nnc(-c3ccc(C(F)(F)F)cc3)n2)cc1OC
    107.0, 110.0
- O=C(Nc1ccc(OC(F)(F)F)cc1)C1CCCN(S(=O)(=O)c2cccc3nonc23)C1 (stereo unspecified)
    110.0, 118.0

The list goes on.
Results follow in this order: PV pol inh, PV pol inh intensity
- CCOc1ccc(-c2cc3nc(C4CCN(C(=O)OC(C)(C)C)CC4)c(C(=O)Nc4ccc(C(=O)OC)cc4)cn3n2)cc1
    107.0, 110.0
- COc1ccc(CCNC(=O)CSc2cc(=O)n(C)c3ccccc23)cc1OC
    106.0, 111.0
- CCc1ccc(-n2nc3cc(C)c(NC(=O)c4cc(Cl)ccc4OC)cc3n2)cc1
    109.0, 113.0
- CCCSc1ncc(Cl)c(C(=O)N(Cc2cccc(Cl)c2)C2CCS(=O)(=O)C2)n1 (stereo unspecified)
    110.0, 107.0
- CCC(=O)N1CCc2cc(S(=O)(=O)NC(CC(C)C)C(=O)Nc3cc(C)ccc3OC)ccc21 (stereo unspecified)
    104.0, 106.0
- O=C(CSc1ncc2c(n1)-c1ccccc1N(Cc1ccccc1)S2(=O)=O)Nc1ccccc1
    107.0, 115.0
- CCN1CCN(c2ncc3c(n2)CCN(Cc2cccc(F)c2F)C3)CC1
    102.0, 101.0
- CC(=O)c1cccc(NC(=O)c2ccc3nc(Cc4ccccc4)oc3c2)c1
    104.0, 108.0
- CCOc1ccccc1NC(=O)C1=C(C)Nc2ncnn2C1c1ccc(C)o1 (stereo unspecified)
    109.0, 113.0
- CCOc1cccc(C2c3[nH]c4ccccc4c3CCN2C(=O)CCc2ccccc2)c1 (stereo unspecified)
    109.0, 112.0
- CCOC(=O)c1ccc(NS(=O)(=O)c2ccc(-c3cc(C)no3)cc2)cc1
    108.0, 113.0
- CCC(Sc1nc2ccccc2c2nc(CCc3c(C)n[nH]c3C)nn12)C(=O)Nc1ccc(F)cc1 (stereo unspecified)
    107.0, 111.0
- COc1cc(NC(=O)CSc2ccc(-c3sc(C)nc3C)nn2)cc(OC)c1
    110.0, 113.0
- Cc1ccc(-c2nnc(Nc3ccc(O)cc3)c3ccccc23)cc1S(=O)(=O)NCC1CCCO1 (stereo unspecified)
    107.0, 110.0
- COc1cc(OC)c(N(C)C(=O)c2cn(C)c(=O)c3cc(OC)c(OC)cc23)cc1Cl
    103.0, 106.0
- CCc1ccc(NCc2cc3cc4c(cc3n(CC(=O)Nc3ccc(C)cc3)c2=O)OCO4)cc1
    100.0, 122.0
- Cc1ccc(C)n1-c1nnc(N2CCCC(C(=O)Nc3ccccc3Br)C2)s1 (stereo unspecified)
    111.0, 105.0
- Cc1ccccc1NC(=O)N1CCC(CN2CCCC2)CC1
    109.0, 110.0
- COc1ccc(CNc2oc(-c3ccc(COc4ccc(OC)cc4)o3)nc2C#N)cc1
    116.0, 112.0
- COc1ccc(-n2ccnc(NCc3ccc(Cl)cc3)c2=O)cc1
    111.0, 97.0
- CC(=O)Nc1nonc1-c1nnc(SCc2ccc(F)cc2Cl)n1C
    110.0, 110.0
- Cc1ccc(C)n1-c1nnc(N2CCCC(C(=O)NCc3ccccc3)C2)s1 (stereo unspecified)
    108.0, 110.0
- Cc1cccc(NC(=O)N2CC=C(c3c[nH]c4ccccc34)CC2)c1C
    97.0, 284.0
- CCN(C(=O)CSc1ncc(S(=O)(=O)c2ccc(C)c(Cl)c2)c(=O)[nH]1)c1cccc(C)c1
    104.0, 112.0
- COc1ccc(-c2nc3c(C#N)c[nH]n3c2NC2CCCCC2)c(OC)c1
    108.0, 111.0
- CC(C)(C)C(=O)Nc1c(C(=O)N2CCN(c3ccc(F)cc3)CC2)oc2ccccc12
    111.0, 108.0
- CCOc1ccc(NC(=O)NCc2c(-n3cccc3)sc3c2CCCC3)cc1
    105.0, 110.0
- Cc1cc(OCCCSc2nc(-c3ccc(C(C)(C)C)cc3)nc3cc(=O)[nH]n23)ccc1Cl
    106.0, 113.0
- Cc1ccc(NC(=O)c2ncn(-c3ccccc3)n2)cc1Cl
    106.0, 106.0
- COc1ccc(OC)c(S(=O)(=O)N2CCN(Cc3nc4ccc(C)cc4o3)CC2)c1
    105.0, 106.0

Reprinted at random: two compounds from above.
Results follow in this order: PV pol inh, PV pol inh intensity
- Cc1ccc(NC(=O)c2ncn(-c3ccccc3)n2)cc1Cl
    106.0, 106.0
- CCOc1ccc(NC(=O)NCc2c(-n3cccc3)sc3c2CCCC3)cc1
    105.0, 110.0

The list goes on.
Results follow in this order: PV pol inh, PV pol inh intensity
- CCn1c(C(=O)NCCc2ccc(OC)c(OC)c2)cc2sc(Cl)cc21
    101.0, 107.0
- CCC(Oc1ccccc1F)C(=O)Nc1cc(-c2ccccc2)no1 (stereo unspecified)
    112.0, 111.0
- CCOc1ccc(-c2cc(CCCC(=O)NCCc3ccc(OC)c(OC)c3)no2)cc1
    107.0, 105.0
- Cc1ccc(SCc2nc(-c3ccc(C(=O)NCc4ccc(Cl)cc4)cc3)oc2C)cc1
    111.0, 113.0
- CCOC(=O)c1c(-c2ccc(C)cc2C)csc1NC(=O)c1ccccc1Cl
    104.0, 104.0
- CCOc1ccc(NS(=O)(=O)c2c(C)nc3sc(CC)nn3c2=O)cc1
    107.0, 110.0
- COc1ccccc1N(C)C(=O)Cn1c(=O)oc2cc(S(=O)(=O)N3CCCC3)ccc21
    103.0, 104.0
- CCN(CC)S(=O)(=O)c1ccc(C(=O)N2CC(=O)Nc3ccc(F)cc3C2c2ccccc2)cc1 (stereo unspecified)
    106.0, 112.0
- COc1cccc(-c2nn(C)c3sc(C(=O)N4CCN(c5cccc(C)c5)C(C)C4)cc23)c1 (stereo unspecified)
    111.0, 110.0
- Cc1ccccc1C(=O)Nc1nc2nc(-c3ccccc3)cc(=O)n2[nH]1
    107.0, 97.0

In the list so far, these have a tert-butyl group:
Results follow in this order: PV pol inh, PV pol inh intensity
- CCOc1ccc(-c2cc3nc(C4CCN(C(=O)OC(C)(C)C)CC4)c(C(=O)Nc4ccc(C(=O)OC)cc4)cn3n2)cc1
    107.0, 110.0
- CC(C)(C)C(=O)Nc1c(C(=O)N2CCN(c3ccc(F)cc3)CC2)oc2ccccc12
    111.0, 108.0
- Cc1cc(OCCCSc2nc(-c3ccc(C(C)(C)C)cc3)nc3cc(=O)[nH]n23)ccc1Cl
    106.0, 113.0

(listing goes on)
Results follow in this order: PV pol inh, PV pol inh intensity
- O=C(CSc1nnc2ccc3ccccc3n12)Nc1ccccc1Cl
    110.0, 106.0
- COc1ccc(CNC(=O)c2cc3sccc3n2C)cc1
    112.0, 116.0
- CCOc1ccc(CCNC(=O)c2ccc(-n3c(C)cc4c3CCC(C)C4)cc2)cc1OCC (stereo unspecified)
    109.0, 103.0
- COc1cccc(N2CCN(C(=O)c3c(C)oc4ncnc(N5CCOCC5)c34)CC2)c1
    112.0, 108.0
- C=Cc1ccc(Cn2c(C(=O)O)c(CNCc3cc(OC)ccc3OC)c3ccc(C)cc32)cc1
    115.0, 115.0
- CCc1ccc(NC(=O)c2cc(S(=O)(=O)NC3CCCCCC3)ccc2F)cc1
    102.0, 105.0
- COc1cccc(CNC(=O)Cc2c(C)c3c(cc(C)c4c(C)c(C)oc43)oc2=O)c1
    109.0, 106.0
- COc1ccc(NC(=O)Nc2cccc(-c3cn4cccnc4n3)c2)cc1
    109.0, 112.0

High-throughput results from PubChem.
